# Screening results as filed in PubChem BioAssay.
# YjeE inh: inhibitors of E. coli YjeE (TsaE); purified YjeE, fluorescence polarisation of a bound ADP probe; Potency, µM; actives 0.05% (n = 71,000); AID 605; active = well fitted falling curve; inconclusive = weaker or top-dose-only fall, or a rising curve; inactive = flat or poorly fitted curve;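 note: top concentration of the series not given in the record; excess ADP was the control for the full effect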
#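 Fluorescence polarization of a BODIPY Texas Red–ADP probe (2 uM) bound to purified YjeE (10 uM) was read after 15 min room-temperature incubation with compounds. Loss of polarization marks inhibitors; ADP serves as titrated control.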
# PK Bst: pyruvate kinase (B. stearothermophilus) modulation | partly purified Bacillus stearothermophilus pyruvate kinase, luminescence ATP production; ribose 5-phosphate activator present at AC10 | Potency, µM | actives 1.2% (n = 51,000); in the data active means potency below about 11 µM; inconclusive means mostly about 12 µM to 25 µM; inactive means weaker than that;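 the screen sought inhibitors and activators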;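 note: potency is the fitted concentration of half-maximal effect; scaled between full activation by ribose 5 phosphate and full inhibition by luteolin; about four in five hits inhibit and the cells do not say which; series up to 57 µM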
# The depositor's hits bear a star; i = inactive; ? = inconclusive; . = no result given.
# Values run as follows: YjeE inh | PK Bst
> O=C(CS(=O)(=O)Cc1ccccc1)Nc1ccccn1
    i | >57
> FC(F)(F)c1ccccc1-c1nc(NCc2cccs2)c2ccccc2n1
    i | .
> CCCCn1c(CCNC(=O)CCC)nc2ccccc21
    i | .
> Cc1cc(C)c2[nH]c(=O)c(=O)[nH]c2c1
    i | .
> CC(=O)Nc1ccc(S(=O)(=O)N(Cc2ccco2)CC2CCCO2)cc1 (stereo not drawn)
    i | >57
> c1ccc(Oc2ccccc2)cc1
    i | .
> CC(=O)Nc1ccc(S(=O)(=O)Nc2nc3c(s2)CCCC3)cc1
    i | .
> COc1cc(/C=C/C2=NC(=O)C(C)(C)O2)ccc1O
    i | >57
> Cc1ccc(Cn2ccc(NC(=O)c3cc(CC(C)C)on3)n2)cc1
    i | .
> Cn1c(SCC(=O)N2CCCC2)nc2ccccc2c1=O
    i | >57
> CC(C)(C)OC(=O)NCCc1nnc(SCc2ccccc2Cl)o1
    i | ?
> O=C(Cc1ccccc1)N1CCN(C(=O)c2cccs2)CC1
    i | >57
> OCCNc1nc(OCC(F)(F)F)nc(N2CCN(C34CC5CC(CC(C5)C3)C4)CC2)n1
    i | >57
> Cn1cc(CNC(=O)Nc2ccc3c(c2)OCO3)cn1
    i | >57
> COc1ccc(C(=O)Nc2c(N)nc(SCC(=O)N3CCC(C)CC3)[nH]c2=O)cc1OC
    i | .
> c1ccc(NCCCNc2ccccc2)cc1
    i | >57
> Cc1n[nH]c(C)c1S(=O)(=O)N1CCCC(C(=O)NC2CCCCC2)C1 (stereo not drawn)
    i | .
> COc1ccc(-c2nc3cnc(Oc4cccc(Cl)c4)nc3n(C[C@H]3CCCO3)c2=O)cc1
    i | .
> Cc1cccc(NC(=O)Nc2ccc(C#N)cc2)n1
    i | .
> CCC(Sc1ncccc1C(=O)OCCN1CCCC1=O)C(=O)NCc1ccco1 (stereo not drawn)
    i | >57
> CCCn1nnnc1NCc1ccccc1OCc1ccc(F)cc1
    i | >57
> CC(=O)C1=C(C)NC(C)=C(C(C)=O)C1c1ccc(-c2ccccc2Cl)o1
    i | .
> COc1cccc(C(=O)NCCC2=CCCCC2)c1OC
    i | >57
> O=C(c1ccc(S(=O)(=O)Nc2ccccc2)cc1)N1CCOCC1
    i | >57
> Cc1c(Cl)cccc1NC(=O)c1cc(-c2ccc(O)cc2)on1
    i | .
> COc1ccccc1CCC(=O)Nc1nc2ccccc2[nH]1
    i | >57
> Cn1c(COc2ccccc2)nnc1SCCC(=O)Nc1ccccc1
    i | >57
> CC1Cc2ccccc2N1C(=O)CSc1nnnn1Cc1ccccc1 (stereo not drawn)
    i | >57
> COc1ccc(OC)c(N2C(=O)C(Cl)=C(N3CCCCC3)C2=O)c1
    i | .
> COc1ccc2oc(=N)c(C(=O)Nc3ccccc3)cc2c1
    i | 8.2*

# Filtered by structure: the compounds so far with fluorine.
# Values run as follows: YjeE inh | PK Bst
> FC(F)(F)c1ccccc1-c1nc(NCc2cccs2)c2ccccc2n1
    i | .
> OCCNc1nc(OCC(F)(F)F)nc(N2CCN(C34CC5CC(CC(C5)C3)C4)CC2)n1
    i | >57
> CCCn1nnnc1NCc1ccccc1OCc1ccc(F)cc1
    i | >57

# New compounds follow.
# Values run as follows: YjeE inh | PK Bst
> Cc1csc(NC(=O)CCc2nc3ccccc3s2)n1
    i | >57
> Cn1c(C(=O)N2CCCCCC2)cc2c(=O)n(C)c3ccccc3c21
    i | .
> CCc1c(C)[nH]c2c1C(=O)[C@H](CN1CCOCC1)CC2
    i | .
> COc1cccc2cc(-c3nnc(SCC(=O)Nc4cc(C(F)(F)F)ccc4Cl)n3N)oc12
    i | >57
> CC(NS(=O)(=O)c1ccc(Br)cc1)C(N)=O (stereo not drawn)
    i | >57
> Cc1ccc(S(=O)(=O)N2CCN(C3CC(=O)N(Cc4ccccc4)C3=O)CC2)cc1C (stereo not drawn)
    i | >57
> CC(=O)c1cccc(NC(=O)NCc2cccnc2)c1
    i | >57
> c1nc(N2CCNCC2)c2cc(-c3ccoc3)ccc2n1
    i | .
> CCn1c(SCC(=O)c2cc(OC)ccc2OC)nc2c1c(=O)n(C)c(=O)n2C
    i | >57
> Cc1ccc(-c2c(C)n([O-])c3c([n+]2=O)CCCCC3)o1
    i | .
> CCC(C)NC(=O)C1CCN(S(=O)(=O)N2CCCC2)CC1 (stereo not drawn)
    i | >57
> CCN(c1ccccc1)S(=O)(=O)c1ccc(OCc2c(C)noc2C)cc1
    i | >57
> N#CCSCC(=O)Nc1ccccc1
    i | >57
> COc1ccc(CSCCN)cc1Cl
    i | >57
> CCOC(=O)c1c(CC(C)C)csc1NC=O
    i | .
> COc1ccc(C(=O)OCCN2C(=O)c3ccccc3C2=O)cc1OC
    i | .
> O=C(NC1CCCC1)NS(=O)(=O)c1ccccc1Cl
    i | >57
> Cc1c(OCc2nn[nH]n2)ccc2c3c(c(=O)oc12)CCC(C)C3 (stereo not drawn)
    i | .
> COCC(=O)N1CCC2(CCN(Cc3nccs3)CC2)CC1
    i | .
> COc1ccc(C(=O)CSC2=C(C#N)C3(CCCCC3)C(C#N)=C(N)N2)cc1
    . | >26
> CN(C)c1ncc2nc(CCc3ccccc3)c(=O)n(C[C@H]3CCCO3)c2n1
    i | .
> COc1ccc(OC)c(S(=O)(=O)N(C)CC(=O)N2CCN(c3ccccc3F)CC2)c1
    i | >57
> COCCn1c(Cc2ccccc2)nnc1SCC(=O)Nc1cc(C)on1
    i | >57
> Cc1[nH]c2ccccc2c1C(=O)COC(=O)C1CC(=O)N(Cc2ccco2)C1 (stereo not drawn)
    i | .
> COc1cc(-c2nnc(SCC(=O)N(Cc3ccccc3)C(C)(C)C)o2)cc(OC)c1OC
    i | >57
> CCCn1c(SCC(=O)Nc2cccc(C(=O)OCC)c2)nnc1-c1ccoc1C
    i | >57
> CCn1c(CNC(=O)Cc2ccc(OC)cc2)nnc1SCC(=O)Nc1nccs1
    i | >57
> CC1CCc2ccc(F)cc2N1S(=O)(=O)c1cccs1 (stereo not drawn)
    i | >57
> Cn1nnnc1SCc1ccccc1F
    i | >57
> Cc1cc(C)c(S(=O)(=O)N(CC(=O)N2CCCC2)C2CCCCC2)c(C)c1
    i | >57
> CCN(CC)S(=O)(=O)c1ccc(Cl)c(C(=O)OC)c1
    i | .
> CCOC(=O)c1ccc(-n2ncc(C(=O)OCC)c2N)cc1
    i | >57
> O=C(NCc1ccccn1)C(F)(F)C(F)(F)C(=O)NCc1ccccn1
    i | >57
> COc1cccc(C2=NOC(C(=O)N3CCN(c4ccccc4)CC3)C2)c1OC (stereo not drawn)
    i | .
> COc1ccc(CCNC(=O)c2cnn3cccnc23)cc1OC
    i | >57
> CC(C)CC1(C(=O)O)NC(c2ccccc2O)C2C(=O)N(C(C)C)C(=O)C21 (stereo not drawn)
    ? | .
> COC(=O)c1cccc(NC(=O)CSc2nc3cccnc3n2C)c1
    i | >57
> CCOC(=O)c1ccc(N(CC(=O)NC2CCCC2)C(=O)CNC(=O)c2ccco2)cc1
    i | >57
> CCCC(=O)Nc1ccc(C(=O)NCCCn2ccnc2)cc1
    i | >57
> Clc1cccc(OCCN2CCOCC2)c1
    i | >57

# Retrieved by compound from the entries so far:
# Values run as follows: YjeE inh | PK Bst
> CCOC(=O)c1ccc(N(CC(=O)NC2CCCC2)C(=O)CNC(=O)c2ccco2)cc1
    i | >57
> CC(C)CC1(C(=O)O)NC(c2ccccc2O)C2C(=O)N(C(C)C)C(=O)C21 (stereo not drawn)
    ? | .

# Next compounds
# Values run as follows: YjeE inh | PK Bst
> O=C(CS(=O)(=O)c1c[nH]c2ccccc12)Nc1ccc2c(c1)OCCO2
    i | >57
> O=C(c1cc2nc(-c3ccc(F)cc3)cc(C(F)(F)F)n2n1)N1CCOCC1
    i | .
> Cc1nc(C)c(C(=O)C2=C(O)C(=O)N(CCN(C)C)C2c2ccccc2)s1 (stereo not drawn)
    i | >57
> COc1cc(N(C)C)c(NC(C)=O)cc1C(=O)O
    i | >57
> CCOc1ccc(NC(=O)c2nnn(CC(=O)Nc3ccccc3OCC)c2N)cc1
    i | >57
> N#Cc1nc(COc2ccc(F)cc2)oc1N1CCC(Cc2ccccc2)CC1
    i | >57
> COc1ccc(S(=O)(=O)N[C@H](C(=O)O)C(C)C)cc1
    i | >57
> C[C@]12CCC(=O)C=C1CC[C@@H]1[C@@H]2C(=O)C[C@@]2(C)[C@H]1CC[C@]2(O)C(=O)CO
    . | >11
> COc1ccc2c3c(ccc2c1)N[C@H](C(=O)O)CC3
    i | .
> Cc1ccc(S(=O)(=O)C2(C(=O)N3CCCCC3C)CC2)cc1 (stereo not drawn)
    i | >57
> CCc1ccc(N2CC(C)Cn3c2nc2c3c(=O)n(CCN3CCOCC3)c(=O)n2C)cc1 (stereo not drawn)
    i | >57
> O=C(Oc1ccccc1)N1CCC2(CC1)CCN(c1ncccn1)CC2
    i | .
> CCOc1ccc(-c2nc(-c3ccncc3)no2)cc1OCC
    i | .
> CCCCN(C)C(=O)c1ccc2c(c1)N(CC)C(=O)c1ccccc1S2(=O)=O
    i | .
> CCCCc1nc(N2CCOCC2)c(C#N)c2c1COC(C)(C)C2
    . | >26
> CCCc1cc(N2CCN(c3ccccn3)CC2)n2nc(C)c(-c3ccccc3)c2n1
    i | >57
> CCOC(=O)Cn1c(CN(Cc2ccccc2)Cc2ccccc2)nc2c1c(=O)[nH]c(=O)n2C
    i | >57
> NCCSSCCN
    i | .
> Cc1cc(C)nc(SCc2nnc(SCC#N)n2-c2cccc(Cl)c2)n1
    i | >57
> CCc1ccccc1N(CC(=O)N1CCN(c2ccc(F)cc2)CC1)S(C)(=O)=O
    i | .
> O=C(c1cnccn1)N1CCC[C@@]2(CCN(c3cccc(-c4ccccc4)c3)C2)C1
    i | .
> O=C1CN(C(=O)COC(=O)CCC(=O)c2ccc3c(c2)OCCO3)c2ccccc2N1
    i | .
> C/C(=N\O)c1cccc[n+]1Cc1ccccc1
    i | .
> Cn1c(=O)[nH]c(=O)c2c1nc(SCC(=O)O)n2CCc1ccccc1
    i | >57
> Cc1ccccc1Cn1cc(S(=O)(=O)CC(=O)Nc2nccs2)c2ccccc21
    i | >57
> Cc1nn(-c2cccc(C(F)(F)F)c2)c(Cl)c1/C=N/n1cnnc1
    i | >57
> C1=C(c2ccccc2)CCN(c2nc3ccccc3n3cnnc23)C1
    i | .
> O=C1CCC(=O)N1OCCCOc1ccc2c(c1)CCC2
    i | >57
> Cc1ccccc1Cn1c(CN2CCN(c3ccc(F)cc3)CC2)nc2c1c(=O)n(C)c(=O)n2C
    i | .
> CCN1CCN(C(=O)C2CCN(Cc3nc(-c4cccc(Cl)c4)oc3C)CC2)CC1
    i | .
> COc1cccc(Cn2c(=O)c(-c3ccc(Cl)cc3)nc3cnc(N4CCN(C)CC4)nc32)c1
    i | .
> COC(=O)c1ccccc1NC(=O)C1CCCN(S(=O)(=O)c2ccccc2)C1 (stereo not drawn)
    i | >57
> Nc1c(O)cccc1C(=O)C[C@@H](N)C(=O)O
    i | .
> Cc1cc(C(F)F)n2nc(C(=O)Nc3ccccc3Br)nc2n1
    i | >57
> O=C(C1CCC1)N1CCc2cc(S(=O)(=O)NCCN3CCN(c4ccccc4F)CC3)ccc21
    i | >57
> Nc1ccc(Cl)cc1Cl
    i | .
> Cc1cccc(Nc2ncc3c(n2)CC(C)CC3=O)c1 (stereo not drawn)
    i | >57
> COc1ccccc1N1CCN(C(=O)N2CCOCC2)CC1
    i | .
> COc1ccc(N=c2oc3c(OC)cccc3cc2C(=O)NCc2ccco2)c(OC)c1
    i | >57
> COC(=O)N1CCC2(CCCN(Cc3ccccc3OC)C2)CC1
    i | .
> CCOc1ccccc1/C=c1\sc2ncnn2c1=O
    i | >57
> CC(=O)Nc1ccc(S(=O)(=O)N2CCN(C(C)CCc3ccccc3)CC2)cc1 (stereo not drawn)
    i | .
> Cc1nc2ncnn2c(N2CCN(C(=O)c3cccc(F)c3)CC2)c1Cc1ccccc1
    i | >57
> COC(=O)CSc1ncccc1-c1nc2ccccc2[nH]1
    i | .
> CCn1c(SCC(=O)Nc2ccc(S(N)(=O)=O)cc2)nnc1-c1cccc(OC)c1
    i | >57
> COc1ccc(C2NC3=C(CCCC3)C(C#N)(C#N)C2(C#N)C#N)cc1 (stereo not drawn)
    i | >57
> CCOc1ccc2[nH]c(=O)c(CN(Cc3ccc(F)cc3)C(=O)c3ccco3)cc2c1
    i | >57
> Clc1ccc(Oc2nc(Oc3ccc(Cl)cc3)nc(N3CCOCC3)n2)cc1
    i | >57
> Cc1cc([C@](C)(N)C(=O)O)ccc1P(=O)(O)O
    i | .
> O=C(NCCOc1ccccc1)C1CCCN1C(=O)c1cccs1 (stereo not drawn)
    i | >57

# Remaining list, next part
# Values run as follows: YjeE inh | PK Bst
> CCOC(=O)N1CCN(C(=O)c2cn(CC)c3cc(N4CCN(C)CC4)c(F)cc3c2=O)CC1
    . | >26
> COc1cccc(Cn2c(=O)cnc3cnc(Nc4ccccc4)nc32)c1
    i | .
> CN1C(=S)SC(C)(C)C1(C)NO (stereo not drawn)
    i | >57
> Cn1c(=O)oc2cc(S(=O)(=O)Nc3cccc(F)c3)ccc21
    i | .
> CC(C)OC(=O)Cn1c(=O)oc2ccccc21
    i | >57
> CC(=O)c1cccc(NC(=O)c2cccc(S(=O)(=O)N(C)C)c2)c1
    i | >57
> O=C1c2ccccc2C(=O)c2c(NC(=O)c3ccc4c5c(ncnc35)-c3ccccc3C4=O)cccc21
    i | .
> N#CCSc1nnc(Cc2ccc3c(c2)OCO3)o1
    i | >57
> CC(CCC(=O)O)(c1ccc(O)cc1)c1ccc(O)cc1
    i | .
> COc1ccc(-c2oc3ncn4nc(COc5ccccc5)nc4c3c2-c2ccc(OC)cc2)cc1
    . | >26

# The list is partial; the hit share may differ from the screen's.
